# Vaccinia mCherry: inhibitors of vaccinia virus infection (mCherry reporter signal) | Potency, µM (series often up to 36.5 µM), without a hit: at the top dose activity change, negative = inhibition, usual class: inhibitors | hit rate 0.63% among 310,000 | Vaccinia virus mCherry reporter infection, fluorescence; about a quarter of the inactives have no number; active = well fitted inhibition curve with a large enough effect; inconclusive = small, poorly fitted or top-dose-only effect; inactive = no such curve, though single readings can be large or run the other way; tested in A549 cells; further: nearly all actives have a fitted effect of over 35% in size; inactives centre near -10
# VACV Venus inh: vaccinia inhibition (Venus reporter); Vaccinia virus Venus reporter expression, fluorescence; Potency, µM (doses to about 36.5 µM), inactives show top-dose activity change, negative = inhibition, usual class: inhibitors; hit rate 0.46% among 330,000; AID 720580; active means well fitted inhibition curve with a large enough effect; inconclusive means small, poorly fitted or top-dose-only effect; inactive means no such curve, though single readings can be large or run the other way; tested in A549 cells; further: nearly all actives have a fitted effect of over 30% in size; inactives centre near -10
# An asterisk follows results filed as active; i = inactive; ? = inconclusive; . = not tested or not shown; & = joins results of further samples; [ ] = remark or other dose. On the % scale 0 is the no-effect control and ±100 the full control effect; potency means the concentration at half of the fitted maximal effect.
mol,VACV Venus inh,Vaccinia mCherry
O=C(CNc1cccc([N+](=O)[O-])c1)NC(=O)NC1CCCCC1,-10%,-5%
Cc1cccc(NC(=O)c2cnn(-c3ccc(F)cc3)c2C2CCNCC2)c1C,4%,i
O=C(CN1C(=O)CC(c2ccccc2)=Nc2ccccc21)NCc1ccccc1,5%,.
CC(=O)c1cccc(NC(=S)N2CCN(S(=O)(=O)c3ccccc3)CC2)c1,-12%,-17%
CC(C)C(=O)Nc1ccc2c(c1)nc(CCN1CCN(c3ccccn3)CC1)n2C,-8%,i
Cc1ccccc1CNCCCSc1nnnn1C,-11%,-12%
O=C(NCc1cc2ccccc2[nH]1)C1CCC(=O)N(CCCN2CCCC2=O)C1 (stereo not drawn),16%[7.34 µM],i[7.34 µM]
Cc1cc(C(C)(C)C)ccc1OCCn1ccnc1,-27%,-27%
Cc1ccc(NC(=O)c2ccc(CNc3c(N4CCOCC4)c(=O)c3=O)cc2)cc1,-9%,-4%
Cn1nc(C(F)(F)F)c(-c2ccc(Br)cc2)c1NC(=O)C1CCC1C(=O)O (stereo not drawn),8%,-9%
Cc1ccc(CNC(=O)C2CCN(c3nc4ccccc4n(C)c3=O)CC2)cc1,2%,6%
c1ccc(COc2cncc(-c3cccnc3)c2)cc1,-21%,i
COc1ccc(NC(=O)C(=O)NCCc2ccc(OC)c(OC)c2)c(OC)c1,-10%,-12%
O=c1[nH]c2ccccc2n1C1CCN(CCCC(c2ccc(F)cc2)c2ccc(F)cc2)CC1,?,-14%&-15%&-15%
Cc1cc(C)c2ccc3c(C)c(C)nc3c2[nH]1,?,?
O=C(OCc1ccccc1)N1CCC2CC1c1cc(Cl)ccc12 (stereo not drawn),-21%,-26%
COc1ccc(-c2nc3nc(C)cc(Nc4cccc(C(F)(F)F)c4)n3n2)cc1,-9%,-1%
CCC(C)NCC(=O)Nc1sc2c(c1C(N)=O)CCC2 (stereo not drawn),-15%,-23%
C=CCNC(=O)c1onc(CSc2cccc(OC)c2)c1C(=O)O,-7%,-2%
Cc1ccc(OC(=O)c2c(C)nn(-c3ccccc3)c2C)cc1,-13%,8%
CC(C)CNC(=O)C(=O)Nc1ccc2c(c1)N(S(=O)(=O)c1cccs1)CCC2,-28%,-15%
Cc1cc(C)cc(NC(=O)NCCc2c(C)nn(C)c2C)c1,-9%,-1%
Cc1c(NC(=O)c2cc(=O)c3cc(Cl)ccc3o2)c(=O)n(-c2ccccc2)n1C,-3%,-2%
C#CC(CC)(CC)NC(=S)Nc1cccc(C(C)=O)c1,3%,i
O=C1CC(c2ccccc2)c2c(n3ncnc3[nH]c2=O)N1 (stereo not drawn),-13%,-3%
OCCN1CCN(C(=S)c2ccc(-c3ccccc3)cc2)CC1,-4%,-3%
Cc1ccc(C)c(C(=O)CCC(=O)NNC(=O)Cn2nc(C)cc2C)c1,2%,i
O=C(CSc1ccccc1Cl)c1ccco1,-7%,.
CCCCn1c(N)c(N(CCOC)C(=O)CCCc2nc3ccccc3c(=O)[nH]2)c(=O)[nH]c1=O,-7%,-9%
Cc1c(C)n(CC(O)CN2CCOCC2)c2ccccc12 (stereo not drawn),-14%,i

# One compound at a time, as listed above. Screens in order: VACV Venus inh, Vaccinia mCherry
# O=C(OCc1ccccc1)N1CCC2CC1c1cc(Cl)ccc12 (stereo not drawn) is entered as -21%, -26%
# COc1ccc(NC(=O)C(=O)NCCc2ccc(OC)c(OC)c2)c(OC)c1 is entered as -10%, -12%
# Cc1c(C)n(CC(O)CN2CCOCC2)c2ccccc12 (stereo not drawn) is entered as -14%, i
# Cc1cccc(NC(=O)c2cnn(-c3ccc(F)cc3)c2C2CCNCC2)c1C is entered as 4%, i

# (list continues)
mol,VACV Venus inh,Vaccinia mCherry
CC(OC(=O)C1CCCCC1)C(=O)Nc1cccc(Cl)c1 (stereo not drawn),-19%,-8%
O=C(CN1C(=O)C2(SCC(=O)N2c2cccc(F)c2)c2ccccc21)NCCc1ccccc1 (stereo not drawn),-9%,-8%
O=C(Nc1nc(-c2cc(F)ccc2F)cs1)C1=NN(c2ccccc2)C(=O)CC1,-3%,i
CC1=C(C(=O)OCC(C)C)C(c2cc3c(cc2Br)OCO3)NC(=O)N1C (stereo not drawn),-22%,.
Cc1nn(Cc2ccccc2)c2c1C(c1ccc(Cl)cc1)C(C#N)=C(N)O2 (stereo not drawn),-21%,-24%
COC(=O)c1cc(S(=O)(=O)N2CCCCC2)ccc1N1CCOCC1,0%,-6%
CCOC(=O)N1CCN(C(=O)Nc2cccc3ccccc23)CC1,-11%,-12%
C[C@H]1CN([C@@H](C)CO)S(=O)(=O)c2ccc(Br)cc2O[C@H]1CN(C)Cc1ccc(F)cc1,-12%,11%
N#CC(c1ccccc1)c1ccc2c(C(F)(F)F)cc(C(F)(F)F)nc2n1 (stereo not drawn),1%,-13%[1.46 µM]
CN(C)c1ccc(NC(=O)Nc2ccc3c(c2)c(=O)n(C)n3Cc2ccccc2)cc1,-10%,i
Cc1ccc(NC(=O)c2ccc(=O)n(CC(=O)Nc3ccccc3)n2)cc1,-8%,-11%
CCCn1c(C2CC(=O)N(c3cc(OC)ccc3OC)C2)nc2ccccc21 (stereo not drawn),2%,-5%
CC1CCCCN1S(=O)(=O)c1ccc(C(=O)Nc2nnc(-c3ccccc3Cl)o2)cc1 (stereo not drawn),-27%,?
COC(=O)CN1C(=S)N(c2ccc(OC)cc2)C(=O)C1CC(=O)Nc1ccc(F)cc1 (stereo not drawn),-9%,-7%
Fc1ccc(CSc2ccc3nnc(-c4ccccn4)n3n2)cc1,-16%,-20%
COc1ccc2sc(-c3ccccc3OC)c(-c3ccc(SC)cc3)c2c1,5%,0%
Clc1cccc(NCc2nnc(SCc3ccc(Cl)cc3Cl)o2)c1,-23%,.
C#CCOCCOCCOCCNc1nc(N2CCOCC2)nc(N2CCN(C(=O)CCCCCCCCCCNC(=O)[C@@H](CCC(=O)O)n3cc(CCCCCN)nn3)CC2)n1,-16%,-10%
CCN1C(=O)[C@H]2[C@@H](c3ccc(-c4ccc5c(c4)OCO5)c(OC)c3)N[C@@](Cc3ccccc3)(C(=O)OC)[C@H]2C1=O,-27%,i
CCCCC1C(C#N)=C(C)NC2=C1C(=O)CC(C)(C)C2 (stereo not drawn),-23%,-5%
COc1cccc(N2CCN(c3ncnc4c3c(-c3ccccc3)cn4-c3ccc(F)cc3)CC2)c1,-7%,-14%
CCOC(=O)CC(=O)CSc1nc2c(c(-c3cccs3)c1C#N)CCC2,-7%,i
COC(=O)c1ccc(N)c(N=CC2=C(O)CC(C)(C)CC2=O)c1,9%,-10%
CC(O)(c1ccc(F)c(F)c1)c1nc(-c2cccc3cccnc23)cs1 (stereo not drawn),-3%,-30%
CCCCN(CCCC)c1ccc(Cn2ccc3ccccc32)cc1,18%,13%
CCOC(=O)c1c(C)[nH]c(C)c1C(=O)COC(=O)c1cc(OC)c(OC)cc1OC,-25%,i
CN(CC(=O)Nc1ccc(N2CCOCC2)cc1)CC(=O)Nc1ccccc1[N+](=O)[O-],0%,-14%
Cc1ccc(S(=O)(=O)NC(=O)C2(C)CCN2C(=O)C2CCCCC2)cc1 (stereo not drawn),9%,31%[activator]
COc1cc(C2=Nc3ccc(Br)cc3C(c3ccccc3)N2CC(=O)NN)cc(OC)c1OC (stereo not drawn),-8%,-20%
CCNc1ccc(S(=O)(=O)N(C)C)cc1NCC(=O)Nc1c(F)cccc1F,-9%,-19%

# An excerpt of these results, as labelled records:
CC(OC(=O)C1CCCCC1)C(=O)Nc1cccc(Cl)c1 (stereo not drawn)
  VACV Venus inh: -19%
  Vaccinia mCherry: -8%

O=C(CN1C(=O)C2(SCC(=O)N2c2cccc(F)c2)c2ccccc21)NCCc1ccccc1 (stereo not drawn)
  VACV Venus inh: -9%
  Vaccinia mCherry: -8%

# (cont.)
mol,VACV Venus inh,Vaccinia mCherry
FC(F)(F)c1ccccc1Cc1c(C2CCCCC2)nc2ccc(Br)cn12,-1%,1%
CNc1nc(-c2ccc(N(C)C)cc2)nc2ccccc12,?,?
Cc1nnc(NC(=O)c2cc3ccccc3o2)s1,-6%,-1%
c1ccc2c(c1)ncc1cccn12,-6%,-3%
COc1cc(C(=S)NCc2ccccc2)cc(Br)c1O,-7%,-6%
CSCCC(NC(=O)COc1ccccc1)C(=O)N1CCCC(C(F)(F)F)C1 (stereo not drawn),-2%,-10%
Cc1ccc(NC(=O)c2ccc(COc3ccccc3)o2)nc1,-2%,i
O=C(NC1CCN(S(=O)(=O)c2ccccc2F)CC1)c1cccnc1,16%,-2%
O=C(Cn1cnnn1)NCc1ccccc1,0%,i
Cc1ccc(OCCC(=O)Nc2ccc(F)c(Cl)c2)cc1,-2%,-12%
CCOc1ccc2nc(NC(=O)C3CCCO3)sc2c1 (stereo not drawn),-9%,-14%
CN(O)/C=C1\C(=O)Nc2ccccc21,-11%,.
COc1ccc(OC)c(NC(=S)NCc2cccs2)c1,2%,i
O=C(Nc1ccc(NC(=O)c2ccc(S(=O)(=O)c3ccccc3)cc2)cc1)c1ccccc1,7%,-7%[1.46 µM]
O=C1NC(=O)C(CC(=O)N(Cc2cccs2)C2(C(=O)NC3CCCC3)CCCCC2)N1 (stereo not drawn),-13%,i
COc1cccc(OC)c1C(=O)Nc1ccc(NC(=O)c2ccco2)cc1,-21%,?
CCC1=Nc2cc(C(=O)NCC(C)c3ccccc3)ccc2Sc2ccc(C)cc21 (stereo not drawn),?,?
CN(C)CCN(C)C1CN(CCc2ccccc2)S(=O)(=O)C1 (stereo not drawn),3%,2%
CCc1ccc(NC(=O)CO/N=C(\C)c2cc3ccccc3o2)cc1,-9%,i
O=C1C(Cc2ccc(Br)cc2)SC(=Nc2ccccc2)N1c1ccccc1 (stereo not drawn),-24%,-24%
COc1ccc(C(=O)Nc2cccc(-c3ccc4nncn4n3)c2)cc1,-25%,-14%
CSc1ccccc1C(=O)C1CCCN(C(=O)c2cncs2)C1 (stereo not drawn),0%[7.34 µM],i[7.34 µM]
Clc1nc(NC2CCCCC2)c2cn[nH]c2n1,12%,-6%
CCN(Cc1ccccc1)C(=O)c1cc2ccc3cccnc3c2[nH]1,-29%,?
CCc1ccc(CN(Cc2ccco2)C(=O)COc2ccc(Cl)c(C)c2)cc1,-13%,-8%
CCN1CCN(CC(=O)Nc2ccc3c(c2)OCO3)C(=O)C1=O,-16%,-12%
CC(Sc1nnc2ccccn12)C(=O)Nc1ccc(Cl)cn1 (stereo not drawn),-8%,i
Cn1c(=O)c2c(ncn2CC(=O)OCC(=O)Nc2cc(Cl)ccc2Cl)n(C)c1=O,-5%,-13%
Cc1ccc(OCCCn2c(=O)oc3ccccc32)cc1,-10%,-13%
Cc1ccc([N+](=O)[O-])cc1S(=O)(=O)n1ccnc1C,0%,13%
CC(C)(CC(=O)OCC(=O)Nc1ccccc1F)CC1=NS(=O)(=O)c2ccccc2N1,-15%&-4%,-15%&-7%
CC(NC(=O)c1cc(-c2ccncc2)nc2ccc(Br)cc12)C1CCCO1 (stereo not drawn),-3%,-12%
Cc1cc2ccccn2c1C(=O)c1ccccc1Br,-25%,-22%
C=C(C)Cn1c(CCCNC(=O)C(C)(C)C)nc2ccccc21,-11%,i
CCCCSc1cc(C)nc2ncnn12,-20%,-3%
O=C1N(Cc2cccc(Cl)c2)C[C@@H]2C[C@@H](c3cccn3-c3ccccn3)N3CCC[C@@]123,-8%,-11%
CCc1ccc(-c2cc(C)no2)cc1S(=O)(=O)NCCN1CCC(C)CC1,?,-27%
CCc1ccc(C(C)NC(=O)c2ccc(F)cc2)cc1 (stereo not drawn),-29%,-4%
CC(C)(C)OC(=O)N(Cc1ccccc1)Cc1ccccc1OCc1cccc(NC(=O)C2CC2)c1,-8%,2%
CCOC(=O)N1CCN(S(=O)(=O)N(C)C)CC1,18%,.
COC1CCN(Cc2c(C(=O)N3CCN(C4CCCCC4)CC3)nc3ccccn23)CC1,-6%,i
OC(COCc1ccccc1)CN1CCN(c2ccccc2)CC1 (stereo not drawn),-10%,-8%
CCOc1ccccc1NC(=O)Cn1nnc2sc(-c3ccccc3)cc2c1=O,-18%,-11%
CSC1=NCCN1C(=O)c1ccc(C)cc1,-15%,-14%
O=C(Nc1cccc(Cl)c1)ON=C1c2ccccc2-c2ccccc21,-11%,-8%
CC(C)c1ccc(NC(=O)C(c2ccccc2)N2CCOCC2)cc1 (stereo not drawn),-5%,-15%
Cc1cccc(C)c1NC(=O)C[N+](C)(C)CC(O)COc1cccc2ccccc12 (stereo not drawn),-17%,i
COc1ccccc1-c1nnc(NC(=O)C2=COCCO2)o1,-4%,-13%
COc1ccc(Nc2nnc(SCC(=O)N3CC(=O)Nc4ccccc43)s2)cc1,7%,-16%
Cc1ccc(CNC(=O)C(CC(C)C)OC(=O)c2ccco2)cc1 (stereo not drawn),-13%,-10%
CC(Oc1cccc(Cl)c1)C(=O)Nc1cc(S(=O)(=O)N2CCOCC2)ccc1N1CCCCC1 (stereo not drawn),-15%,i
Cc1ccc(Cn2c(C)c(C(=O)NCc3ccccc3C(F)(F)F)sc2=O)cc1,-4%,i
